Mtb betalactam – beta-lactam sensitization of Mtb H37Rv; 0.27% of 330,000 active; M. tuberculosis H37Rv growth with meropenem, percent inhibition; hits of this screen are not shown here; inhibition, % at 25 µM;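 active = about 74% or more and at least 40 points above the plate without the antibiotic, then above 30% in a dose series; inconclusive = first-round hits that could not be retested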;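 also: growth measured after seven days incubation then overnight dye step; 0% = bacteria only wells and 100% = bacteria with antibiotic; twin plates without the antibiotic show which effects depend on it; some results filed as inactive read as strong as hits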
YopH inh – blocks Yersinia enterocolitica YopH tyrosine phosphatase | fluorescence Ex485/Em525 | inhibition, %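 (about 10 µM by stock and volumes)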 | 0.16% of 140,000 active | AID 898;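 active = inhibition of 50% or more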;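 also: controls were vehicle for no effect and minimum signal wells for full effect; inactives centre near -20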
Arbovirus anti – blocks arbovirus infection; 0.37% of 200,000 active; AID 1251; inhibition, % at 10 µM; arbovirus infection cell-based antiviral screen;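 active = inhibition from about 30%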;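 also: bluetongue infection of BSR cells; cell survival read as ATP light after 72 h; 0% = infected wells without compound and 100% = uninfected wells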
Mtb growth – M. tuberculosis H37Rv growth inhibitors, H37Rv strain (AID 1626). M. tuberculosis H37Rv growth inhibition; higher % means a stronger effect. one-dose inhibition, % at 10 µM; IC50 in µM for titrated hits. 0.95% of 220,000 active;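 active = confirmed in a dose series; inconclusive = inhibition above 80% but not taken into the dose series; inactive = below 80% or under 30% at every dose of the series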;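 also: bacteria incubated seven days before Alamar blue readout; 0% = bacteria only wells and 100% = bacteria with antibiotic wells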
RecA intein inh – inhibitors of M. tuberculosis RecA intein splicing | inhibition, %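 (about 9 µM by stock and volumes)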 | P9WHJ3 | 0.75% of 290,000 active | cell-free RecA intein splicing, fluorescence; in the data active = inhibition above about 30%; inconclusive = no clear call, values can overlap the other calls;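 also: 0% = vehicle wells and 100% = reference inhibitor control wells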
Target sequence (P9WHJ3 whole entry, looked up): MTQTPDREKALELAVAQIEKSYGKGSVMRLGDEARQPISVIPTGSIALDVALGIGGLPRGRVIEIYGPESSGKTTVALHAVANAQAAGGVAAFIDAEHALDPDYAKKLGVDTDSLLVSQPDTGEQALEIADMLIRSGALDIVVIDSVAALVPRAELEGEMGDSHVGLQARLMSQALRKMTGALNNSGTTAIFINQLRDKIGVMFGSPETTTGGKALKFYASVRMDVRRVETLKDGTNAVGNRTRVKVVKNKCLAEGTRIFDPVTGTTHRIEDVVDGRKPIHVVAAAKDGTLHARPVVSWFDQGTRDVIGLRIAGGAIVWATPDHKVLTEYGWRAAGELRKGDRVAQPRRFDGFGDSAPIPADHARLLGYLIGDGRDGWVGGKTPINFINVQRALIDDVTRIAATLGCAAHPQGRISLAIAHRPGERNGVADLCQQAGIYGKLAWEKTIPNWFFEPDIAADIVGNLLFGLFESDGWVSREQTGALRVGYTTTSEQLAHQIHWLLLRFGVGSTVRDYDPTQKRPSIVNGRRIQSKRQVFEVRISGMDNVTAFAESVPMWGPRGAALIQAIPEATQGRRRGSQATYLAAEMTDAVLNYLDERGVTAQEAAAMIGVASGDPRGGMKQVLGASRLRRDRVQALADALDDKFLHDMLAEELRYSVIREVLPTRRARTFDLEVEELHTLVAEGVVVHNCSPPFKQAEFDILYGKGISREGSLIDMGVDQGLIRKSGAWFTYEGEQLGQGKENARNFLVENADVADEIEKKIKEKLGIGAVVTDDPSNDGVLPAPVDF
Arbovirus anti repeat – recorded beside Arbovirus anti, whose call it bears; inhibition, %; measured here: 10K subset replicate screen; many hits read low in the repeat;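 first of two repeat runs on a subset; 0% = infected and 100% = uninfected wells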
* = called active by the depositor; ? = inconclusive; / = not tested or not shown. A portion of the library; the hit share may differ from the screen's.

SMILES	Mtb betalactam	YopH inh	Arbovirus anti	Mtb growth	RecA intein inh	others
O=C(/C=C/c1cccc([N+](=O)[O-])c1)NCCSCc1ccco1	2	-15	-3	-1%	3.0
O=c1[nH]c(/C(Cl)=C/c2cc(Cl)ccc2O)nc2cc(Cl)ccc12	2	-20	-20	3%	24
CCOC(=O)C1(CCOc2ccccc2)CCN(Cc2cccn2-c2cccnc2)CC1	15	/	4	2%	2.2
Cc1ccc(NS(=O)(=O)c2ccc(CCC(=O)N3CCOCC3)cc2)cc1	-4	10	-2	-2%	5.1
O=C(CN1CCCN(S(=O)(=O)c2ccc(F)cc2)CC1)Nc1ccccc1Br	-6	-33	4	1%	4.4
Cc1ccccc1-n1nc(C)c(N=O)c1N	-4	/	8	-2%	-3.6
COc1ccc(CNC(=O)CCCn2nc([N+](=O)[O-])cc2C)cc1	-3	/	18	-3%	1.0
Cc1nc(NC(=O)c2ccccc2)sc1-c1csc(NCc2ccco2)n1	-1	3	-38	2%	9.8
Nc1ccc(Cc2ccc(N)c(O)c2)cc1O	/	/	6	-5%	/
COc1ccc([N+](=O)[O-])cc1N(CC(=O)NC1CCCC1)S(C)(=O)=O	-1	/	3	6%	-4.3
CCOC(=O)C1CCN(Cc2nc3ccccc3c(=O)n2-c2ccc(F)cc2)CC1	-3	-3	4	/	-8.3
O=C(NCc1ccco1)C1CCCN1C(=O)Nc1ccccc1Cl (configuration not stated)	-2	/	2	-1%	-2.2
CCC1(CCc2ccncc2)C(=O)NC(=O)NC1=O	-5	-10	4	-3%	-0.8
O=c1ccnc(SCn2nnc3ccccc3c2=O)[nH]1	-20	-17	8	-6%	-3.1
COc1ccc(CC(=O)Oc2ccccc2Cl)cc1S(=O)(=O)N1CCOCC1	-5	/	/	/	12
O=c1[nH]c(SCc2ccc(F)cc2)nc2c1cnn2-c1ccc(F)cc1	-1	-24	-3	12%	-3.3	Arbovirus anti repeat=0
C/C(=N\OC(=O)Nc1ccc(Cl)cc1)c1ccc(F)c(F)c1	0	/	/	/	6.6
CC1CCCCN1CCCNC(=O)c1ccc2nc(N3CCCCC3)sc2c1 (configuration not stated)	-6	/	/	/	1.5
CCn1cc(CN2CCN(C)C(CCO)C2)c2ccccc21 (configuration not stated)	3	/	/	/	-0.7
COc1ccc2[nH]c(=O)c(CN(Cc3cccs3)C(=S)Nc3cccc(C)c3)cc2c1	-6	-23	7	6%	-1.4
CCOC(=O)C1=C(C)NC(=O)NC1c1cc(C)sc1C (configuration not stated)	-8	-22	5	3%	-1.4
CC(C)N(C(=S)Nc1cccc(C(F)(F)F)c1)C(C)c1ccccn1 (configuration not stated)	5	/	-15	8%	3.9
CN(C)NC(=S)NC(=O)C12CC3CC(CC(C3)C1)C2	86	/	-2	6%	-5.2
O=C(O)c1ccc(Cl)c(S(=O)(=O)Nc2ccccc2Cc2ccccc2)c1	-6	/	/	/	2.4
CCOc1ccc(C2c3[nH]c4ccccc4c3CCN2Cc2cccn2-c2ncccn2)cc1 (configuration not stated)	62	/	/	34%	6.0
COc1ccc(CCNC(=O)c2cc3c(cc2Cl)N2CCCCCC2=NS3(=O)=O)cc1	-9	/	/	/	-2.5
O=C(CN1CCCC1)Nc1ccc(OC(F)(F)F)cc1	-15	/	/	/	0.8
O=C(Nc1nnc(S(=O)(=O)N2CCCC2)s1)c1ccccc1Br	0	/	/	/	0.7
O=C1CSC(c2ccccc2)N1c1cccnc1 (configuration not stated)	26	/	/	-14%	-0.8
O=C(O)C1CC=CCC1C(=O)Nc1ccccc1C(=O)N1CCN(c2ccc(F)cc2)CC1 (configuration not stated)	-1	-16	10	-6%	-2.7
O=C(NCCNC(=O)C1CC2CCC1C2)C1CC2CCC1C2 (configuration not stated)	4	3	2	-7%	/
COc1cc2ccccc2cc1C(=O)Nc1ccc(N2CCN(C)CC2)cc1	15	/	/	2%	-4.9
O=C1CN(C(=O)COC(=O)Cc2ccsc2)c2ccccc2N1	-15	-38	7	-1%	/
Cc1ccsc1-c1nc(CSCC(=O)NCc2ccc3c(c2)OCO3)c(C)o1	6	-32	8	/	3.6	Arbovirus anti repeat=6
Cc1ccc(S(=O)(=O)N(CC(=O)O)c2ccc(Cl)c(C(F)(F)F)c2)cc1	-4	/	9	-4%	1.1
CS(=O)(=O)c1ccc2nc(NC(=O)C3COc4ccccc4O3)sc2c1 (configuration not stated)	-9	-42	0	-9%	-1.6
COc1ccc(N2CCN(C(=O)c3ccccc3N(C)S(=O)(=O)c3ccccc3)CC2)cc1	-15	/	/	/	-0.6
CC(C)NC(=O)CC1(C(=O)NCc2ccc(Cl)cc2)CCCC1	0	/	/	/	-0.2
CN(C)C(=O)Cn1c(SCC(=O)N2CCCc3ccccc32)nc2ccccc21	0	-37	8	-6%	-0.2
COC(=O)C1=C(C)NC(=O)CC1c1ccccc1 (configuration not stated)	-4	-26	-4	3%	/
Cc1cc(C)c2c(N)c(C(=O)NN)sc2n1	-8	/	/	-6%	-2.5
NC(=O)CN1C(=O)/C(=c2\sc3nc(=O)c(Cc4ccccc4)nn3c2=O)c2ccccc21	-4	/	/	-4%	0.4
CN(C)c1nc(Nc2ccccc2)nc(Oc2ccc(=O)[nH]n2)n1	6	18	-4	-6%	4.2
CCOc1ccc(/C=C/C(=O)N2CCOCC2)cc1OC	-15	/	/	/	4.2
O=C(O)/C=C/C(=O)Nc1cccnc1	0	-12	4	0%	/
O=C(NCC(c1ccco1)N1CCc2ccccc2C1)C(=O)Nc1ccc(F)cc1F (configuration not stated)	4	/	/	/	7.0
Cc1cc(C)n(CC(=O)n2nc(C)cc2C)n1	0	-15	0	/	-3.9
Cn1c(=O)c2c(nc(SCc3ccccc3F)n2C)n(C)c1=O	-3	/	/	/	-1.3
O=S(=O)(c1cccc(-c2nnc(-c3ccc(Br)cc3)o2)c1)N1CCCCCC1	2	-42	-7	2%	-2.1
COc1cc(NC(=O)CNc2cccc(S(=O)(=O)N3CCCC3)c2)cc(OC)c1	-10	/	/	/	-4.0
O=C(Cc1ccccc1)Nc1c2c(nn1-c1cccc(Cl)c1)CS(=O)(=O)C2	/	-32	7	-9%	-2.7
CC(=O)Nc1ccc(S(=O)(=O)NC(C)C(=O)NC(C)c2ccccc2)cc1 (configuration not stated)	-4	/	-2	-6%	-5.3
O=C(COC(=O)c1ccccc1)NCCC1=CCCCC1	-11	/	11	5%	-2.5
O=C(NCc1cccnc1)Nc1cccc(NC(=O)NCc2cccnc2)c1F	-1	/	/	-3%	2.0
CCSc1nnc(NC(=O)NCC(F)(F)F)s1	-12	-32	7	-4%	0.2
CN(C)c1ccc(NC(=O)CN2C3CCCC2CC(NC(=O)c2ccccc2)C3)cc1 (configuration not stated)	46	/	/	/	-3.5
COc1ccccc1N1CCN(C2CCN(C(=O)c3cccc(F)c3)CC2)CC1	-1	-21	-1	-1%	0.7
COC(=O)CCCC[C@H]1SC[C@H]2NC(=O)N[C@]21O	-5	20	-1	-9%	-1.5
Cc1ccc(C(=O)Nc2cccnc2)cc1[N+](=O)[O-]	5	/	7	-3%	/
Cc1sc2nc(SCC(=O)NCCOCCO)n(C)c(=O)c2c1C	-1	-29	0	-6%	-0.5

(next part)
SMILES	Mtb betalactam	YopH inh	Arbovirus anti	Mtb growth	RecA intein inh	others
CC(C)CN(CCNC(=O)CN1N=C(c2ccc(Cl)cc2)CCC1=O)CC(C)C	3	/	/	/	0.2
CC12CCC3C(CC=C4CC5(CCC43C)OCCO5)C1CCC2=O (configuration not stated)	-3	/	7	-3%	-2.6
CCOc1ccc(CCNC(=O)c2cccc(C#N)c2)cc1OCC	-7	/	14	5%	-3.5
CCN(Cc1cc(=O)[nH]c2ccccc12)C(=O)C(C)C	0	/	/	-13%	1.9
COc1cc(/C=C2/N=C(c3ccccc3)OC2=O)c(F)cc1OCc1ccccc1	97	/	/	-2%	-3.4
CC12COC3(C(=O)N4CCN(c5ccccn5)CC4)CC1CCC32C (configuration not stated)	-8	/	/	3%	1.2
CCC(C)[C@H]1COCCS(=O)(=O)N1Cc1ccccc1F (some centres not stated)	-8	/	/	/	2.1
COc1ccc(C)cc1NC(=O)CN(c1ccc(C)cc1)S(C)(=O)=O	-2	/	-3	1%	0.3
COc1ccccc1CCCNC(=O)C1CCC(=O)N(CCc2ccc(Cl)cc2)C1 (configuration not stated)	8	/	/	/	4.3
Cc1ncc(CO)c(/C=N/NC(=O)c2ccc(O)cc2)c1O	2	-40	-14	-13%	-21
COc1ccc(N2CCN(C(=O)Cc3csc(NC(=O)Nc4ccccc4OC)n3)CC2)cc1	79	/	/	/	0.2
CCC(C(=O)O)P(=O)(c1ccc(Cl)cc1)c1ccc(Cl)cc1 (configuration not stated)	-4	/	-4	-5%	-4.7
CC1=C(C(=O)OC2CCCCC2)C(c2cccnc2)n2ncnc2N1 (configuration not stated)	-4	-26	7	-7%	0.1
O=C(CP(=O)(CO)CO)c1ccc(Cl)cc1	0	-31	11	-4%	1.2
COC(=O)[C@H]1C[C@@H]1[C@H](NS(=O)(=O)c1ccccc1)c1ccccc1	0	-35	-1	-4%	2.2

Compounds from the list above that have bromine, in the order listed:
SMILES	Mtb betalactam	YopH inh	Arbovirus anti	Mtb growth	RecA intein inh	others
O=C(CN1CCCN(S(=O)(=O)c2ccc(F)cc2)CC1)Nc1ccccc1Br	-6	-33	4	1%	4.4
O=C(Nc1nnc(S(=O)(=O)N2CCCC2)s1)c1ccccc1Br	0	/	/	/	0.7
O=S(=O)(c1cccc(-c2nnc(-c3ccc(Br)cc3)o2)c1)N1CCCCCC1	2	-42	-7	2%	-2.1

5 records picked at random from the list so far:
SMILES	Mtb betalactam	YopH inh	Arbovirus anti	Mtb growth	RecA intein inh	others
O=C(CP(=O)(CO)CO)c1ccc(Cl)cc1	0	-31	11	-4%	1.2
COc1ccc(C)cc1NC(=O)CN(c1ccc(C)cc1)S(C)(=O)=O	-2	/	-3	1%	0.3
CCOc1ccc(CCNC(=O)c2cccc(C#N)c2)cc1OCC	-7	/	14	5%	-3.5
COc1ccccc1CCCNC(=O)C1CCC(=O)N(CCc2ccc(Cl)cc2)C1 (configuration not stated)	8	/	/	/	4.3
CCC(C)[C@H]1COCCS(=O)(=O)N1Cc1ccccc1F (some centres not stated)	-8	/	/	/	2.1

Additional compounds follow:
SMILES	Mtb betalactam	YopH inh	Arbovirus anti	Mtb growth	RecA intein inh	others
Cc1cc2cc(C(c3nnnn3C3CCCC3)N(Cc3cccnc3)Cc3ccco3)c(=O)[nH]c2cc1C (configuration not stated)	50	-12	2	-5%	7.7
OC(CNCCNc1ncccc1C(F)(F)F)COc1ccc(F)cc1 (configuration not stated)	-14	/	/	1%	-1.2
O=C1NCCN(Cc2c(F)cccc2Cl)C1CC(=O)N1CCCO1 (configuration not stated)	-3	/	4	-4%	-13
COc1ccc(CN(C(=O)c2oc3ccc(F)cc3c2C)C2CCS(=O)(=O)C2)cc1 (configuration not stated)	?	/	/	/	4.7
CCc1c(C)sc(NC(=O)c2ccco2)c1C(=O)N1CCCCC1	-6	-3	4	-7%	-2.0
O=C1CCN(S(=O)(=O)c2ccccc2)CCN1CCOCc1cccc(F)c1	-11	/	/	2%	1.0
COc1ccc(NC(=O)Cn2nc(C(=O)O)c3ccccc3c2=O)cc1OC	7	/	/	/	0.3
C=C(C)Cn1c(C2CC(=O)N(Cc3ccccc3)C2)nc2ccccc21 (configuration not stated)	2	/	6	6%	1.6	Arbovirus anti repeat=2
CN(C)c1ccc(CNC(=O)CN(C)S(=O)(=O)c2ccc3c(c2)c(=O)n(C)c(=O)n3C)cc1	12	/	/	/	0.0
NC(=O)N/N=C\c1cc(Br)ccc1O	1	-25	-1	-3%	-12
O=C(Nc1cccc(Cl)c1)Nc1cnccn1	-14	/	/	/	-0.2
CN(C)S(=O)(=O)c1ccc(C(=O)Oc2ccccc2)cc1	98	-87	21	?	7.7
COc1cccc(N2C(=O)C(Cc3c[nH]c4ccccc34)NC2=S)c1 (configuration not stated)	-1	-11	-4	6%	-0.1
CN1CCN(CCc2nc3cc(NC(=O)COc4ccc(Cl)cc4)ccc3n2C)CC1	9	/	/	/	1.3
CCCn1c(NCc2ccc(C)o2)nc2ccccc21	-5	-17	12	11%	-1.4
O=C(c1ccccc1)c1ccc(CN2C(=O)c3ccccc3C2=O)o1	5	-34	5	-3%	1.9
CCCn1cc(S(=O)(=O)CC(=O)N2CCc3ccccc32)c2ccccc21	-3	-42	9	-9%	1.5	Arbovirus anti repeat=7
COc1ccc(N2CCN(C(=O)C(NC(=O)c3c(F)cccc3F)C(C)C)CC2)cc1 (configuration not stated)	-3	/	/	/	-1.7
Cc1cc(C)c2ccc(C)[n+]([O-])c2c1O	-12	-15	4	-1%	-0.9
CCCCCCN1C(=O)C(O)=C(C(C)=O)C1c1ccc(Cl)cc1 (configuration not stated)	1	-32	2	-1%	/	Arbovirus anti repeat=-14
Cc1cccc(C(=O)NC(=S)N2CCN(c3ccc([N+](=O)[O-])cc3)CC2)c1	1	-23	-2	0%	-0.5

High-throughput results deposited in PubChem BioAssay by several laboratories.
